Screening data from PubChem BioAssay.
T cruzi repl – blocks replication of Trypanosoma cruzi; actives 1.4% (n = 300,000); inhibition, % (no concentration beside the values); T. cruzi beta-gal in NIH3T3, luminescence, 90 h;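 active = mean inhibition across valid replicates above about 55%, limit read from the data; inconclusive = mean below that limit but half or more replicates reach it; inactive = mean below it, under half of replicates reach it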;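 note: signal also drops with host cell toxicity which is not excluded here; 0% = plate median of DMSO wells and 100% = zero luminescence signal; higher percent means less beta-gal luminescence so fewer parasites; stock transfer was 50 nL into about 50 µL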
Beta apoptosis – beta cell apoptosis inhibition | protection from apoptosis, % (concentration not given with the values) | INS-1E cytokine-induced death, ATP luminescence, 48 h; percent of positive-control rescue, neutral wells zero | actives 0.8% (n = 300,000) | AID 435005;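 active = all replicates at 75% or more, or half of them and the mean; inconclusive = half reach 75% but not the mean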;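 note: 0% = cytokine-treated negative control wells and 100% = positive control rescue; higher means more ATP so stronger rescue from cytokine killing; wells of about 40 µL received 100 nL stock; the first replicate is given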
LANA-H2A inh – blocks KSHV LANA binding to histone H2A/H2B; inhibition, % (concentration not given with the values); actives 0.6% (n = 320,000); cell-free LANA-H2A/H2B peptide, fluorescence polarization; Q9QR71; in the data active = inhibition mostly above about 10%, no sharp cut-off; inactive = mostly below about 6.7%;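 note: stock transfer was 7.5 nL into about 10 µL; 0% = median of vehicle wells and 100% = median of positive control wells; one replicate is shown; the record names a cut of 25% in any replicate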
Target sequence (Q9QR71 whole entry, looked up): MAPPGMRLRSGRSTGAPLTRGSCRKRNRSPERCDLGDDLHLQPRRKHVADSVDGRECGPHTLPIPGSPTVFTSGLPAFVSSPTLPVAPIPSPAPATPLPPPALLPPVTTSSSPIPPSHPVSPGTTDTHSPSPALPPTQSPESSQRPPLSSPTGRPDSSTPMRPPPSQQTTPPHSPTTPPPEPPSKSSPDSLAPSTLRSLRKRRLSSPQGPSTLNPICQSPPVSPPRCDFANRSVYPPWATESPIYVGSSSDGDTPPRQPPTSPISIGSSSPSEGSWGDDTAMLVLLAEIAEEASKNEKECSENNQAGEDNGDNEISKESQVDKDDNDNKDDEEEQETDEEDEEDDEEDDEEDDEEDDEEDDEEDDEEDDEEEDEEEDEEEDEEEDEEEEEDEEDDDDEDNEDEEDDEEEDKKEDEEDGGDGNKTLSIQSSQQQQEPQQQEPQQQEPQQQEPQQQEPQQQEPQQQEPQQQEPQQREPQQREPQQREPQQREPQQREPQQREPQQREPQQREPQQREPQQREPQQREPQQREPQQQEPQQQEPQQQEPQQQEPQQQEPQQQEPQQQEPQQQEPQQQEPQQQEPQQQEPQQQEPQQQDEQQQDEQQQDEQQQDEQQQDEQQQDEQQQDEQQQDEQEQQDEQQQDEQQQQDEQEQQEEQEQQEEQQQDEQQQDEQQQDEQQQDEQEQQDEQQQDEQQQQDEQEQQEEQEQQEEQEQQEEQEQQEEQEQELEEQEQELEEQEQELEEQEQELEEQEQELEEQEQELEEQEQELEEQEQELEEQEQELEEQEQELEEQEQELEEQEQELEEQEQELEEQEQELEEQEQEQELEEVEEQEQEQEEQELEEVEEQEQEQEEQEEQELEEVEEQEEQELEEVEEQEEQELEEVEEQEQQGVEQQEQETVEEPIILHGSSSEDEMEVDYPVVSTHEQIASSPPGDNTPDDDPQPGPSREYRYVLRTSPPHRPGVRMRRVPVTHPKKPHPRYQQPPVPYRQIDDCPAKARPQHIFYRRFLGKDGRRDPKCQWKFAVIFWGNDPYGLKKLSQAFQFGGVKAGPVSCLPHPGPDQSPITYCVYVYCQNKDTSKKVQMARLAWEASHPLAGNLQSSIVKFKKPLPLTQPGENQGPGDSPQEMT
B2AR ag – agonists of human beta-2 adrenergic receptor inducing internalization. P07550. Am2.2-beta2AR cells, FAP receptor internalization, flow cytometry; reference of the scale not given here. response, % (test concentration not listed). actives 0.43% (n = 340,000);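 active = response above a set limit, near 3 SD of response in nonfluorescent compounds, cut at about 42% in these data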;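 note: stock transfer was 100 nL into about 11 µL; a reference agonist was the positive control; negative values mostly stem from fluorescent compounds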
A1 inh – inhibitors of the anti-apoptotic protein A1, read as caspase activation. AID 2462. caspase activation, % (no concentration beside the values). actives 0.066% (n = 330,000). MEF A1-2A-BIM cells, Caspase-Glo 3/7 luminescence, 3 h; percent of clofoctol response, vehicle zero;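 active = over half of replicate activation scores above 10%, or exactly half above 10 with the replicate mean above 10; inconclusive = replicate mean below 10 yet half the replicates above 10; inactive = over half of replicates below 10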;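 note: wells of about 30 µL received 50 nL stock; many hits fall short of the cut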
Calb FLC – affects C. albicans growth with fluconazole | C. albicans CaCi-2 (fluconazole-resistant clinical isolate) + fluconazole, Alamar Blue growth, 48 h | growth inhibition, % (concentration not given with the values) | actives 0.57% (n = 300,000);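 active = most replicates above 75%; inconclusive = exactly half above 75%; inactive = most below 75%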;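 note: all wells also contain fluconazole at 8 µg/ml as a sub-toxic cotreatment; 0% = median of DMSO wells and 100% = median of geldanamycin control wells; wells of about 8 µL received 7.5 nL stock; the first replicate is given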
RanGTP-Imp inh – disruptors of Ran-importin-beta complex formation – biochemical, FRET, CFP-Ran, YFP-importin-beta, homogeneous, primary screen; cell-free CFP-Ran/YFP-importin-beta FRET ratio; inhibition, % (no concentration beside the values); actives 1.1% (n = 300,000);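 active = most replicates above 15%; inconclusive = exactly half above 15%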;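 note: 0% = DMSO wells and 100% = Ran loaded with GDP instead of GTP; wells of about 40 µL received 100 nL stock; the first replicate is given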
UCH37 inh – inhibitors of human deubiquitinating enzyme UCH37; Q9Y5K5; purified proteasome/UCH37, Ub-AMC cleavage fluorescence; inhibition, % (no concentration beside the values); actives 0.33% (n = 330,000); AID 588478;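 active = mean of two replicates above 20%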;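 note: 0% = compound-free wells with enzyme and 100% = wells lacking proteasome; stock transfer was 100 nL into about 20 µL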
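Material: Human UCH37 enzyme supplied as purified proteasome complex | Schedule: 30 min preincubation with enzyme, 25 min cleavage at room temperature | Detection: AMC fluorescence 355/460 nm | Measure: % inhibition of Ub-AMC cleavage fluorescence | Controls: Wells without proteasome as full block, compound-free enzyme plus substrate as uninhibited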
* = called active by the depositor; i = inactive; u = inconclusive; x = not tested or not shown; & = joins results of further samples. These rows are one share of the data (hit frequency here may not be typical).

SMILES	T cruzi repl	Beta apoptosis	LANA-H2A inh	B2AR ag	A1 inh	Calb FLC	RanGTP-Imp inh	UCH37 inh
Cn1c(O)c(C(=Nc2ccc(F)cc2)c2ccccc2)c(=O)n(C)c1=O	-5	1	1.0	-6	-0.2	1	4.9	3.0
CCc1ccccc1NC(=O)CNCc1ccccc1	-7	0	8.8	1	0.3	-7	2.9	-1.1
COC(=O)C1=C(c2ccc(OC(F)(F)F)cc2)C[C@@H]2CC[C@H]1N2C(=O)N1CCC(C)CC1	x	10	1.4	-1	-1.0	x	x	1.5
CCN(CC)C(=O)c1ccc(NC(=O)CNC(C)c2cccc3ccccc23)cc1 (configuration not stated)	3	-3	-2.9	8	0.6	0	-5.3	2.4
Cc1ccc(CN2C(=O)NC(=O)C3(Cc4c(nc5ccccn5c4=O)N4CCCCCC43)C2=O)cc1 (configuration not stated)	16	1	-2.0	-20	-1.6	16	1.2	-19
COC(=O)C1=C(c2c(C)noc2C)C[C@@H]2CC[C@H]1N2C(=O)N1CCC(O)(c2ccc(Cl)cc2)CC1	x	4	-0.5	-5	1.9	x	x	5.5
COC(=O)C1=C(c2cccc3c2S(=O)(=O)c2ccccc2-3)C[C@@H]2CC[C@H]1N2C(=O)N1CCc2cc(OC)c(OC)cc2C1	x	7	3.4	2	-0.3	x	x	2.7
CC(C)CC(C)N (configuration not stated)	x	-2	45*	-4	-0.4	x	x	x
CCOC(=O)C1(CCc2ccccc2)CCN(Cc2ccc3c(c2)OCCO3)CC1	23	x	-0.9	1	-0.3	-30	-0.8	-1.4
Cc1ccc2[nH]c(=S)n(-c3cccnc3)c(=O)c2c1	-10	-8	3.3	8	0.1	7	0.0	4.6
Cc1[nH]c2ccccc2c1C(=O)C(=O)N1CC2CC(C1)c1cccc(=O)n1C2 (configuration not stated)	-8	-2	-6.5	1	0.7	3	1.6	6.6
Cc1cc(S(=O)(=O)NC(C)C)ccc1OCC(=O)N1CCN(Cc2ccc3c(c2)OCO3)CC1	17	7	0.6	14	-1.0	2	0.1	2.1
CCCC12CN3CN(C1)CC(CCC)(C3)C2O (configuration not stated)	x	-10	2.2	-6	0.2	4	-0.4	2.5
Brc1ccc2c(c1)C(OC1CN3CCC1CC3)c1ccccc1CS2 (configuration not stated)	27	8	-2.9	50*	-1.1	17	0.2	10
O=C1NC(=O)N(Cc2ccccc2Cl)C(=O)/C1=C/N1CCOCC1	-23	-5	2.0	2	1.3	-1	3.8	3.1
CC1C(C)N1CC(O)Cn1ccnc1[N+](=O)[O-] (configuration not stated)	7	0	2.1	-4	-0.3	1	-3.6	3.4
CCOC(=O)C1CCN(/C=C2/C(=O)NC(=O)N(Cc3ccco3)C2=O)CC1	-18	1	3.5	12	-0.3	u	-0.8	0.6
Cc1ccccc1-n1c(-c2ccoc2)nc2ccccc2c1=O	10	-2	i	0	-0.4	22	1.0	3.9
Cc1c(N=Cc2c(O)n(CCc3ccccc3)c(=O)[nH]c2=O)c(=O)n(-c2ccccc2)n1C	-22	-3	-1.8	1	-0.1	-4	3.1	2.7
CN(Cc1ccccc1)C1CCCN(C(=O)COc2ccccc2Cl)C1 (configuration not stated)	32	-5	-4.8	-1	-0.2	-5	1.8	0.9
COC(=O)C1=C(c2cc3ccccc3o2)C[C@@H]2CC[C@H]1N2C(=O)NC(C)C	7	14	-6.6	13	0.4	9	u	3.3
O=C(COc1ccc(Cl)cc1)N1CCN(C2CCCC2)CC1	-5	-7	-3.3	-2	0.1	17	2.6	1.1
N=C1c2ccccc2CN1NC(=O)c1ccc(Cl)cc1	-3	2	4.0	-15	-0.3	-14	4.2	2.6
COC(=O)C1=C(c2ccc(F)cc2OCc2ccccc2)C[C@@H]2CC[C@H]1N2C(=O)NCc1ccc2c(c1)OCO2	x	-10	3.0	7	1.7	x	x	1.9
CN1C(=O)C(=Cc2ccc(N3CCCCCC3)cc2)C(=O)N(C)C1=O	-4	-11	-1.8	5	0.4	3	-0.3	0.2
CC(=NCc1cccnc1)c1c(O)n(-c2ccc(Cl)cc2)c(=O)[nH]c1=O	-12	-6	1.1	-6	0.0	4	-1.2	0.6
CN(C)C(=S)SSC(=S)N(C)C	25	8	-1.7	18	0.2	x	-0.9	0.2
Cc1nc2c(-c3ccc(F)cc3)c(C)nn2c(C)c1CCC(=O)N1CCC2(CC1)OCCO2	5	3	0.0	-5	-0.9	4	-7.6	0.7
CC(=O)Nc1cc(C(=O)N2CCC3(CC2)OCCO3)ccc1Sc1ccc(C)cc1	-7	2	-0.4	-3	0.2	2	0.2	1.0
CCN1CCN(c2cn[nH]c(=O)c2Cl)CC1	-5	-9	-0.7	-11	0.2	10	-1.1	6.3
CCOC(=O)c1c(C)n(Cc2ccco2)c2ccc(O)cc12	-11	9	1.4	6	0.8	6	5.9	0.5
Cc1c2cnn(CC(=O)N3CCC4(CC3)OCCO4)c(=O)c2c(C)n1Cc1ccccc1	5	-2	9.4	-5	0.0	-1	-1.8	-2.9
O=C(c1cccc2ccccc12)C1CCCN(Cc2ccon2)C1 (configuration not stated)	3	-3	-0.1	0	1.1	-8	2.9	-3.7
CCCCCc1nc2ccccc2c(=O)n1-c1ccc(Cl)cc1[N+](=O)[O-]	1	-1	2.2	0	-0.3	8	2.1	0.2
Cc1nc2ccccc2c(=O)n1-c1ccc(C(=O)O)cc1	8	7	0.2	-5	0.2	-2	1.3	-2.0
O=c1c2ccccc2nc(/C=C/c2ccccn2)n1-c1ccccc1	-5	-8	-1.6	-3	-1.1	-5	-1.0	-154
COC(=O)C1=C(N)Oc2cc(C)oc(=O)c2C12C(=O)Nc1ccccc12 (configuration not stated)	-10	-9	-1.8	-3	0.3	8	1.7	0.5
CCOC(=O)CC1=C(C(=O)OCC)C2(C(=O)N1CC(=O)OC)C(C#N)=C(N)Oc1ccccc12 (configuration not stated)	-5	-4	-1.2	-1	0.9	-12	-2.3	2.1
COc1ccc(OC)c(N=Cc2c(O)[nH]c(=O)[nH]c2=O)c1	-10	-2	10	-5	-0.4	-8	2.1	4.4
COc1cccc(-n2c(/C=C/c3ccccn3)nc3ccccc3c2=O)c1	0	x	-4.6	-3	0.4	-1	-3.4	0.6
CCN1C[C@]2(COC(=O)c3ccccc3N)CC[C@H](OC)C34[C@@H]5C[C@H]6[C@H](OC)[C@@H]5[C@](O)(C[C@@H]6OC)[C@@](O)([C@H]13)[C@@H](OC)[C@@H]42	-22	1	1.0	4	-0.4	-5	2.6	-252
CCC(=NCCCN1CCOCC1)c1c(O)n(Cc2ccccc2)c(=O)[nH]c1=O	2	1	-2.9	-3	-0.2	6	2.1	5.9
O=C(NCc1ccccc1)c1cccn(Cc2ccccc2)c1=O	-1	-7	-1.8	0	-0.1	-3	4.5	-46
Cc1sc2nc(COC(=O)Cc3ccccc3)[nH]c(=O)c2c1C	-3	6	2.8	0	-0.4	16	20*	2.4
Cc1ccc(OCCn2cc(/C=C(\C#N)C(=O)NCC3CCCO3)c3ccccc32)cc1C (configuration not stated)	13	21	-0.6	-5	-0.5	-18	5.8	-0.7
O=C1NC(=O)N(CCC2=CCCCC2)C(=O)/C1=C/c1ccc(O)cc1	-5	-5	1.8	1	0.1	13	-1.0	4.0
N#Cc1c(/N=C/c2ccc(O)cc2O)sc2c1C1CCN2CC1	-4	-9	-6.2	1	-1.0	-13	39*	x
Cc1cccc(OP(=O)(Oc2ccccc2)OC(c2ccccc2)C(F)(F)F)c1 (configuration not stated)	5	-3	0.1	11	0.9	-6	-2.3	3.8
COc1ccc(Cc2c(O)[nH]c(=O)[nH]c2=O)c(OC)c1	-5	-2	-0.6	0	1.5	-4	-4.2	1.3
O=C(Cc1ccccc1[N+](=O)[O-])N1CCN(Cc2ccc3c(c2)OCO3)CC1	-1	x	-7.4	-4	-0.4	u	0.2	-0.6
Other compounds follow:
SMILES	T cruzi repl	Beta apoptosis	LANA-H2A inh	B2AR ag	A1 inh	Calb FLC	RanGTP-Imp inh	UCH37 inh
Cc1cc(O)c(CN2CCN(c3ccccc3)CC2)cc1C	-18	2	3.5	-3	0.6	-7	-1.9	1.5
O=c1c2ccccc2nc(-c2ccco2)n1-c1ccccn1	-6	x	2.1	5	-0.2	-2	1.9	5.2
CC(C)(C)n1c(O)c(C=Nc2ccc3c(c2)CCC3)c(=O)[nH]c1=O	1	-21	0.6	3	-0.2	-3	u	-25
NC(=O)OCCCc1ccccc1	1	1	-7.0	-4	3.3	x	1.7	1.7
CCOC(=O)C1=C(C)N(C)C2(C)CC1c1ccccc1O2 (configuration not stated)	1	0	1.0	11	-0.3	-4	2.5	6.5
COc1ccc(C2SCC(=O)Nc3c2c(=O)[nH]n3C2CCCCCC2)cc1 (configuration not stated)	-6	-2	-3.0	-5	0.3	-25	-2.3	3.6
COc1ccc(Cl)cc1C(=O)C1CCCN(Cc2cnc(C)s2)C1 (configuration not stated)	7	-2	2.3	-15	0.8	0	6.9	-5.0
CCCCCn1c(NC(=O)c2ccco2)c(C(=O)OCC)c2nc3ccccc3nc21	1	-2	2.2	-13	0.5	9	79*	-145
COC(=O)C1=C(c2ccccc2)C[C@@H]2CC[C@H]1N2C(=O)NC(C)C	-11	-11	0.9	0	1.1	-17	1.3	2.3
Cc1ccc(N2CCN(CCc3ccccc3)CC2)cc1	-5	-3	-3.0	3	1.2	-22	x	-1.1
NCCc1ccc(OCc2ccccc2)c(OCc2ccccc2)c1	x	9	-7.3	43*	-0.8	x	x	2.6
CCCCn1c(C)c(C(=O)OCC)c2c(CN3CCCC3)c(O)ccc21	33	7	-3.8	11	-1.7	-13	1.2	1.1
CC1(C)CN=C(Nc2ccc(F)c(Cl)c2)S1	-7	-4	-0.2	3	-1.4	-1	-0.2	0.5
O=C(C1CCC(=O)N1C1CCCCC1)N1CCC2(CC1)OCCO2 (configuration not stated)	6	-3	-2.9	-6	-0.1	-4	0.9	3.6
Cc1c(C)c2ccc(OCC(=O)N3CCN(Cc4ccccc4)CC3)cc2oc1=O	x	0	0.1	-11	0.8	x	x	0.6
Oc1ccc(C2NCc3ccccc3-n3cccc32)cc1Cl (configuration not stated)	-1&6	-3&-7	-3.1&-15	-34&-1	-0.5&-0.7	1&56	1.7&1.5	-0.7&4.8
CN1C(=O)/C(=C/c2ccc(Cl)s2)C(=O)NC1=S	-11	0	-1.6	19	1.0	7	4.3	x
CCOC(=O)[C@]1(C#N)[C@@H]2C=CC(C(C)=O)=CN2[C@@H](C(N)=O)[C@@H]1c1ccsc1	5	-4	-5.4	2	0.7	-3	-0.7	9.2
Cc1ccc2c(c1)CC1(CN2C)C(=O)NC(=O)N(C(C)C)C1=O (configuration not stated)	-14	-4	-4.4	-4	-0.3	5	1.2	6.0
CCCC(=O)NC(Oc1ccc(C(C)=O)cc1)C(Cl)(Cl)Cl (configuration not stated)	-6	-13	-1.2	1	-0.3	-9	-0.2	4.8
